Vif TR-FRET – inhibitors of Vif binding to APOBEC3G peptide, primary screen, biochemical, TR-FRET, GST-Vif 1-94, biotin-A3G peptide, dose response retest (AID 1117319); 0.57% of 260,000 active; TR-FRET GST-Vif / biotin-A3G peptide binding; higher % means a stronger effect; test concentration not given here; strong numbers were not always called active; inhibition, %, or IC50 in µM where a hit was titrated; Virion infectivity factor (Human immunodeficiency virus type 1 group M subtype B (isolate …;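 active = above the screen mean plus three standard deviations and confirmed in dose response; inconclusive = results disagree or hit not tested in dose response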;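 also: Vif residues 1-94 fused to GST binding biotinylated APOBEC3G peptide 110-148; 0% = full assay without inhibitor and 100% = GST in place of GST-Vif; retest series ran down from 100 µM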
Beta2AR agonist – beta2AR agonists driving receptor internalization, primary screen, cell-based, FAP fluorogen, flow cytometry | response, % (concentration not given with the values) | Beta-2 adrenergic receptor (Homo sapiens), P07550 | Am2.2-beta2AR cells; reference of the scale not given here | AID 504454, 2011 | 0.43% of 340,000 active;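 active = response above a set limit, near 3 SD of response in nonfluorescent compounds, cut at about 42% in these data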;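 also: stock transfer was 100 nL into about 11 µL; a reference agonist was the positive control; negative values mostly stem from fluorescent compounds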
Target sequence (P07550 whole entry, looked up): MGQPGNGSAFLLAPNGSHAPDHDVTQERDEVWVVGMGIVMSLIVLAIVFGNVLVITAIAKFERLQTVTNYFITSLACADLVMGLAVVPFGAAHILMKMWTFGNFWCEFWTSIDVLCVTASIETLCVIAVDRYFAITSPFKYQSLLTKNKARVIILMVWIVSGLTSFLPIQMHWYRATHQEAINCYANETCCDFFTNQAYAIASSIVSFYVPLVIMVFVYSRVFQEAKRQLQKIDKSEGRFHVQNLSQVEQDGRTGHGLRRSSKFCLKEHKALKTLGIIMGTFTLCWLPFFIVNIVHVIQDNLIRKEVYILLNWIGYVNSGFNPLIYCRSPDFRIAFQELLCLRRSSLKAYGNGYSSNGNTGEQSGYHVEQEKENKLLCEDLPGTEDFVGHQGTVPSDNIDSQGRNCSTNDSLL
Ecoli growth – E. coli growth inhibition, primary screen, OD600; Escherichia coli growth, 23 h; stronger effect = lower value; OD600 absorbance (test concentration not listed); 0.21% of 330,000 active;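 active = OD600 absorbance below the run mean of sample wells minus 3.6 SD, in any replicate, cut at about 0.56 in these data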;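 also: stock transfer was 300 nL into about 60 µL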
Bfl-1 A1 inh – caspase 3/7 activation in MEF A1-2A-BIM cells, primary screen, A1 inhibitor project, cell-based, luminescence, HTS. Caspase-Glo 3/7 luminescence, 3 h; percent of clofoctol response, vehicle zero. caspase activation, % (no concentration beside the values). 0.066% of 330,000 active. AID 2462, 2010;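 active = over half of replicate activation scores above 10%, or exactly half above 10 with the replicate mean above 10; inconclusive = replicate mean below 10 yet half the replicates above 10; inactive = over half of replicates below 10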;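 also: wells of about 30 µL received 50 nL stock; many hits fall short of the cut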
LANA-H2A inh – blockers of LANA interaction with H2A/H2B – biochemical, FP readout, HTS, primary screen. AID 2629, 2010. cell-free LANA-H2A/H2B peptide, fluorescence polarization. 0.6% of 320,000 active. inhibition, % (no concentration beside the values). Protein LANA1 (Human herpesvirus 8 type P (isolate GK18)), Q9QR71; in the data active = inhibition mostly above about 10%, no sharp cut-off; inactive = mostly below about 6.7%;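 also: stock transfer was 7.5 nL into about 10 µL; 0% = median of vehicle wells and 100% = median of positive control wells; one replicate is shown; the record names a cut of 25% in any replicate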
HNF4A DNA FP – change in binding of human HNF4A to DNA, primary screen, biochemical, fluorescence polarization, FITC-DNA. Hepatocyte nuclear factor 4-alpha (Homo sapiens), P41235. 1 h. activity change, % at 10 µM. 0.3% of 360,000 active. AID 1224865, 2016; in the data active = activity change above about 30%, passing the limit was not always enough;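 also: controls were the assay level and a saturating level of protein; the project sought stronger binding though the title names inhibitors; some compounds called inactive have numbers as strong as hits; positive values seem to mean higher polarization but the record does not say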
UCH37 inh – inhibitors of human UCH37 deubiquitinase, primary screen, biochemical, Ub-AMC cleavage, fluorescence. Ubiquitin carboxyl-terminal hydrolase isozyme L5 (Homo sapiens), Q9Y5K5. purified proteasome/UCH37. inhibition, % (no concentration beside the values). 0.33% of 330,000 active. AID 588478, 2011;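 active = mean of two replicates above 20%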;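 also: 0% = compound-free wells with enzyme and 100% = wells lacking proteasome; stock transfer was 100 nL into about 20 µL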
Target sequence (Q9Y5K5 whole entry, looked up): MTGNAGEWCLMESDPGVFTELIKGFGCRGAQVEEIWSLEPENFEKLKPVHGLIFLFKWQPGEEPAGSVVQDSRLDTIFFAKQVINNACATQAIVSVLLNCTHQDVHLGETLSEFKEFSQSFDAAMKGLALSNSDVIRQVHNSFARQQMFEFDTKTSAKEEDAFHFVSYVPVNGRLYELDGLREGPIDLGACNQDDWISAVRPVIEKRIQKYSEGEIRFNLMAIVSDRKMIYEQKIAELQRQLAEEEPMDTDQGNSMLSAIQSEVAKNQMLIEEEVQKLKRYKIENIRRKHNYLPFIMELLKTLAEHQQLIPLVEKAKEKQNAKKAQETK
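System: Proteasome-associated human UCH37 deubiquitinase; Input: 0.15 nM proteasome in added enzyme buffer; Also added: Ub-AMC substrate from 1 µM stock; Incubation: 30 min compound-proteasome preincubation then 25 min substrate reaction, room temperature; Detection: fluorescence, ex 355 nm, em 460 nm; Read-out: % inhibition of Ub-AMC cleavage fluorescence; Benchmarks: no-proteasome and no-compound wells.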
* marks the source's active call; other numbers are inactive results; ? = inconclusive; . = not tested or not shown; & = joins results of further samples.

SMILES,Vif TR-FRET,Beta2AR agonist,Ecoli growth,Bfl-1 A1 inh,LANA-H2A inh,HNF4A DNA FP,UCH37 inh
CC(C)Nc1ccc(C(CC(N)=O)NC(=O)c2ccccc2)cc1[N+](=O)[O-] (stereo unspecified),.,-12.8,0.648,0.2,2.4,1.8,3.8
CNc1cccc2c1C(=O)c1ccccc1C2=O,7.6%,2.4,.,-1.0,-3.6,-13.0,3.3
Cc1ccc(/C=C\c2nccc3c2[nH]c2ccccc23)cc1,-3.4%,13.1,0.685,1.6,6.0,5.6,-231.3
FC(F)(F)c1cc(C(F)(F)F)c2ccc(N3CCN(c4ccccc4)CC3)nc2n1,-4.7%,-15.1,0.678,-1.3,0.5,-3.0,-5.3
O=C1CCC(=O)N1CN(Cc1ccco1)CN1C(=O)CCC1=O,15.6%,-8.1,0.716,-0.3,3.7,-2.5,1.9
Cc1ccc(NC(=S)N(Cc2ccc(Br)cc2)Cc2ccc(C(=O)O)cc2)cc1C,2.0%,7.8,0.665,-0.5,0.2,4.9,4.4
CC1CCC(C(C)C)C(=O)/C1=C\c1ccc(NC(=O)CCC(=O)O)cc1 (stereo unspecified),-1.1%,-4.2,0.696,0.4,1.0,-2.3,5.7
Cn1c(SCC(=O)NC2CC2)nnc1-c1cccc(NC(=O)c2ccccc2F)c1,-0.4%,-2.7,0.717,0.9,-4.7,-2.2,6.4
COc1cc(CNC2CCCC2)cc(Br)c1OCC(=O)Nc1ccccc1C,0.8%,3.7,0.648,-0.8,-4.1,-3.5,4.0
O=C(CNC(=O)c1cccc(F)c1)NC1CC1,3.8%,5.5,0.649,-0.7,9.0,-0.3,1.0
CCOC(=O)C1C(=O)C(C(C)=O)C(=O)CC1CC(C)SCC (stereo unspecified),6.7%,2.2,0.698,0.8,1.6,-0.7,-0.8
COC(=O)c1c(C)oc(C)c1S(=O)(=O)N1CCOCC1,2.0%,-2.6,0.669,0.4,0.8,-2.9,0.5
CNC(=O)c1ccsc1NC(=O)c1ccc(Cl)s1,-0.6%,7.9,0.745,-0.7,-2.3,8.2,-33.0
O=C(Nc1ccc(F)cc1F)C1CCN(S(=O)(=O)c2cccnc2)CC1,.,4.2,0.592,-1.1,1.3,-6.2,-0.4
COC(=O)C(NC(C)=O)(Nc1ccc(Br)cc1)C(=O)OC,3.8%,-1.4,0.711,-0.3,-0.8,-2.3,4.7
CC(C)NC(=O)CSc1c2c(nc3ccccc13)CCCC2,-2.2%,0.2,0.669,-0.6,-5.7,-3.6,8.1
O=C(c1ccccc1)N1CCC(O)(c2cccnc2)CC1,27.8%,-2.9,0.675,-0.5,2.4,-0.1,0.6
CCNC(=S)NNc1nc(N2CCCCC2)nc(N2CCOCC2)n1,-7.0%,-0.8,0.675,-0.1,2.9,-2.8,1.4
CCOC(=O)C(NC(=O)c1ccc(Cl)cc1Cl)(Nc1ccc(C)cc1)C(F)(F)F (stereo unspecified),-4.9%,-0.4,0.69,-0.3,-3.3,-1.4,3.1
COc1ccc(S(=O)(=O)N2CCCCC2)cc1NC(=O)Cc1cccs1,-2.5%,3.4,0.636,-0.1,-2.7,-0.6,5.8
N#C/C(=C\c1ccc(N2CCCC2)c([N+](=O)[O-])c1)c1nc2ccccc2[nH]1,20.4%,34.3,0.754,-1.1,10.9,2.4,4.3
COc1ccc(OC(=O)c2cc(S(=O)(=O)N3CCCC3)ccc2Cl)cc1,4.3%,-9.5,0.632,0.5,2.4,4.8,2.1
CCCCN(CCCC)CCCNC(=O)C1CC(c2ccc(C(F)(F)F)cc2)=NO1 (stereo unspecified),-1.6%,-0.3,0.656,0.8,5.0,-0.4,0.9
Cc1ccc(C(=O)NCCCNC(=O)Cc2ccc(Cl)cc2)cn1,5.8%,3.1,0.692,-0.6,.,-3.0,-0.5
COc1ccc(C(=O)NCC(=O)N/N=C(C)\C=C\c2ccccc2)cc1OC,-4.2%,-1.9,.,1.2,7.3,1.0,.
CC(C)CC(NC(=O)CC12CC3CC(CC(C3)C1)C2)C(=O)NC1=NCCS1 (stereo unspecified),-0.1%,-10.9,0.583,0.2,-1.2,-0.9,-0.6
Cc1ccccc1CN(C)CC(=O)Nc1c(C)cccc1C(C)C,-5.1%,6.3,0.659,1.2,0.8,0.4,2.3
Cc1[nH]c2ccccc2c1NC(=O)CN1CCN(c2cccc(C(F)(F)F)c2)CC1,9.0%,-5.8,0.665,0.0,2.3,-8.1,0.7
CC[n+]1c(P(=O)([O-])c2ccccc2)[nH]c2ccccc21,-3.9%,0.9,0.698,0.7,-1.5,-2.6,3.1
CSCC[C@@H](C(=O)NCc1cccs1)N1Cc2ccccc2C1=O,5.9%,7.0,0.652,-0.1,-6.0,1.0,1.1
COCC(=O)Nc1ccc(N2CCOCC2)c(S(=O)(=O)Nc2ccc(OC)cc2)c1,.,-9.5,0.711,0.0,-0.2,3.3,-0.4
NNC(=O)C=C1CCN(c2ncc(C(F)(F)F)cc2Cl)CC1,20.9%,-7.4,0.688,.,2.7,-0.6,2.1
S=C(CN1CCCC1=S)N1CCOCC1,.,-0.7,0.65,0.6,2.3,1.7,4.8
Cc1cc(S(=O)(=O)N2CCOCC2)ccc1OCC(=O)N1CCCCC1,25.7%,2.4,0.681,1.2,4.4,4.0,-3.4
Cc1ccccc1C(=O)Nc1nc(SCc2ccc(Cl)cc2)n[nH]1,-1.2%,6.7,0.678,?,2.9,1.7,6.8
CC1CCN(S(=O)(=O)c2ccc3c(c2)N(CC(=O)NCCN2C(C)CCCC2C)C(=O)CS3)CC1 (stereo unspecified),.,0.4,.,0.2,3.4,0.8,.
NC(=O)C1(N2CCCCC2)CCN(S(=O)(=O)c2cc(Cl)ccc2Cl)CC1,13.9%,-13.9,0.776,-0.1,-1.9,1.9,2.9
Cc1cc(Cl)c(S(=O)(=O)N2CCN(c3ccccn3)CC2)cc1OCC(=O)NC1CCCCC1,-3.0%,13.3,0.668,1.4,7.4,-5.8,3.2
O=C(COc1ncnc2ccccc12)NCCCN1CCCC1=O,5.5%,-1.8,0.675,-1.0,-0.1,-1.3,-27.0
COc1ccc(-c2noc(CN(C)C(=O)c3ccc4c(c3)OCO4)n2)cc1OC,.,-9.4,0.66,-0.1,5.7,4.8,1.0
O=C(CN1C(=O)/C(=C\c2ccccc2Cl)Oc2ccccc21)NCc1cccnc1,1.2%,-5.5,0.712,0.1,2.1,-1.4,-376.1
COc1ccc(S(=O)(=O)n2cnc(C)c2)cc1,-3.6%,-3.0,0.704,-0.3,-4.0,-4.5,3.0
CC(C)(C)N1CC(OC(N)=O)C1,-1.1%,-4.7,0.654,-0.5,-1.4,-0.2,5.2
CCOC(=O)c1c(-c2ccccc2)csc1NC(=O)CCN1C(=O)c2ccccc2C1=O,24.9%,-7.6,0.716,-0.1,3.4,-1.8,-0.8
O=C(c1ccco1)N1N=C(c2ccc3nccnc3c2)CC1c1ccccc1 (stereo unspecified),-6.4%,-4.1,0.644,0.2,-0.2,3.6,4.9
O=C(c1cccc(Br)c1)c1coc2ccc(O)cc12,0.3%,1.4,0.721,-3.5,.,1.3,4.5
COc1ccc(Nc2nc(-c3cccs3)nc3ccccc23)cc1,-3.1%,6.1,0.733,0.0,4.5,-1.1,-63.6
O=C(CCSc1ccc(Cl)cc1)c1ccco1,2.2%,-3.1,0.594,0.8,-0.5,1.3,1.7
Cc1ccc(Nc2ncc3c(n2)CC(C)(C)CC3=O)cc1,-3.0%,4.6,0.703,0.6,1.3,-4.1,-6.5
Cc1nn(Cc2ccccc2Cl)c(C)c1NC(=O)C1C2CCC(O2)C1C(=O)O (stereo unspecified),23.2%,4.2,0.739,.,.,-2.7,1.7
CC1(C)C(=O)Nc2ccccc2N1C(=O)COc1ncnc2c(Cl)cc(Cl)cc12,-0.1%,-7.0,0.655,-0.1,0.5,1.4,-6.2
CCCNC(=O)COc1cccc(C(=O)NCc2ccccc2)c1,4.4%,-4.0,0.669,-0.3,0.2,2.6,3.5
O=C(Nc1cccc([N+](=O)[O-])c1)c1[nH]ncc1Cl,31.5%,-9.5,0.722,-10.9,-1.0,-1.0,7.2
COc1ccc(C(CNC(=O)CNC(=O)c2cccc(C)c2)N2CCOCC2)cc1 (stereo unspecified),-8.5%,-4.4,0.688,-0.4,-0.4,-2.9,2.4
CC(C)(C)c1ccc2c(c1)OC(C(=O)N/N=C\c1ccccn1)CO2 (stereo unspecified),-3.9%,8.4,.,-0.1,-1.8,3.9,.
N/C(=N\NC(=O)c1ccccc1)c1cc2ccccc2oc1=O,5.2%,-1.6,0.695,-0.7,-0.9,4.9,4.5
COCCc1nc2ccc(C(=O)N(C)Cc3cccc(-n4nc(C)cc4C)c3)cc2o1,.,-13.8,0.731,1.5,-0.8,0.6,3.9
CCS(=O)(=O)c1ccc(O)c(NC(=O)c2cc(-c3ccccn3)nc3ccccc23)c1,.,-1.5,0.674,0.7,1.1,0.2,2.0
Cc1ccc(NC(=O)Nc2cccn(Cc3c(F)cccc3Cl)c2=O)cc1,?,-1.5,0.688,-0.3,-4.9,2.0,-15.1
Cc1cc(C)n(C(=O)CNC(=O)c2ccc3c(c2)OCCO3)n1,-2.5%&27.9%,-1.6,.,-0.3,-0.9,-5.1,3.5

The list continues:
SMILES,Vif TR-FRET,Beta2AR agonist,Ecoli growth,Bfl-1 A1 inh,LANA-H2A inh,HNF4A DNA FP,UCH37 inh
COc1ccc(C(=O)NCC(=O)N2CCNC(=O)C2)cc1OC,.,2.0,0.666,0.7,-0.2,-1.2,0.6
Cc1ccc(C(=O)n2ncn(C)c2=S)cc1,-5.2%,-8.1,0.713,.,.,-1.4,6.7
NC(=O)Nc1ccc2c(c1)OCCO2,8.9%,1.1,0.678,0.2,5.3,1.8,2.5
COc1cccc(C2/C(=C(/O)c3ccc(F)cc3)C(=O)C(=O)N2CCN(C)C)c1 (stereo unspecified),15.2%,2.9,0.679,1.6,2.6,0.7,26.3*
COc1ccc(/C=N/NC(=O)CN2CCCc3ccccc32)c(OC)c1,-0.7%,-0.8,.,0.1,8.2,12.8,.
Cc1cc(C(=O)NNc2ccc(Cl)cc2)no1,3.6%,-6.3,.,0.7,-0.3,-2.1,.
O=C(CSc1nnc(-c2ccc3c(c2)OCO3)o1)Nc1c(F)cccc1F,.,-5.3,0.663,1.0,1.7,-3.3,0.9
Cc1occc1C(=O)Nc1nnc(C(F)(F)F)s1,-6.2%,-1.0,0.594,-0.2,4.0,2.2,1.6
COc1ccc(S(=O)(=O)Nc2ccc3oc(C)c(C(C)=O)c3c2)cc1,?,-7.3,0.694,-0.9,-3.7,0.0,3.1
Cn1ncc2c(N)nc(NCCO)nc21,9.2%,-3.1,0.697,.,.,1.2,0.7
O=C(NC(=S)NCc1nc2ccccc2[nH]1)c1ccc(F)cc1,-1.7%,-7.7,0.694,-0.1,3.8,0.3,4.9
